# Beta apoptosis: inhibitors of cytokine-induced beta cell apoptosis, primary screen, luminescence; INS-1E cytokine-induced death, ATP luminescence, 48 h; percent of positive-control rescue, neutral wells zero; protection from apoptosis, % (no concentration beside the values); actives 0.8% (n = 300,000);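 active = all replicates at 75% or more, or half of them and the mean; inconclusive = half reach 75% but not the mean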;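 note: 0% = cytokine-treated negative control wells and 100% = positive control rescue; higher means more ATP so stronger rescue from cytokine killing; wells of about 40 µL received 100 nL stock; the first replicate is given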
# Calb FLC: C. albicans growth inhibition with fluconazole, primary screen, CaCi-2 strain, Alamar Blue fluorescence | AID 1979, 2009 | actives 0.57% (n = 300,000) | C. albicans CaCi-2 (fluconazole-resistant clinical isolate) + fluconazole, 48 h | growth inhibition, % (test concentration not listed);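 active = most replicates above 75%; inconclusive = exactly half above 75%; inactive = most below 75%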;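 note: all wells also contain fluconazole at 8 µg/ml as a sub-toxic cotreatment; 0% = median of DMSO wells and 100% = median of geldanamycin control wells; wells of about 8 µL received 7.5 nL stock; the first replicate is given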
# T cruzi inh: inhibitors of intracellular T. cruzi growth, primary screen, luminescence, NIH3T3 host cells | T. cruzi beta-gal in NIH3T3, 90 h | AID 1885, 2009 | actives 1.4% (n = 300,000) | inhibition, % (test concentration not listed);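 active = mean inhibition across valid replicates above about 55%, limit read from the data; inconclusive = mean below that limit but half or more replicates reach it; inactive = mean below it, under half of replicates reach it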;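 note: signal also drops with host cell toxicity which is not excluded here; 0% = plate median of DMSO wells and 100% = zero luminescence signal; higher percent means less beta-gal luminescence so fewer parasites; stock transfer was 50 nL into about 50 µL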
# Bfl-1 A1 inh: caspase 3/7 activation in MEF A1-2A-BIM cells, primary screen, A1 inhibitor project, cell-based, luminescence, HTS; Caspase-Glo 3/7 luminescence, 3 h; percent of clofoctol response, vehicle zero; caspase activation, % (concentration not given with the values); actives 0.066% (n = 330,000); AID 2462, 2010;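 active = over half of replicate activation scores above 10%, or exactly half above 10 with the replicate mean above 10; inconclusive = replicate mean below 10 yet half the replicates above 10; inactive = over half of replicates below 10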;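 note: wells of about 30 µL received 50 nL stock; many hits fall short of the cut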
# RanGTP-Impb inh: inhibitors of RanGTP-importin-beta interaction, primary screen, biochemical, FRET, CFP-Ran, YFP-importin-beta, homogeneous; cell-free CFP-Ran/YFP-importin-beta FRET ratio; inhibition, % (test concentration not listed); actives 1.1% (n = 300,000); AID 2216, 2009;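 active = most replicates above 15%; inconclusive = exactly half above 15%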;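 note: 0% = DMSO wells and 100% = Ran loaded with GDP instead of GTP; wells of about 40 µL received 100 nL stock; the first replicate is given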
# MLL AF4-AF9 inh: inhibitors of AF4 peptide binding to AF9, primary screen, biochemical, AlphaScreen, biotin-AF4 peptide, FLAG-AF9, single point; Protein AF-9 (Homo sapiens), P42568; AID 651704, 2012; inhibition, % at 10 µM; actives 0.47% (n = 350,000);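 active = every replicate reaching a set inhibition limit, whatever the replicate mean, cut at about 25% in these data; inconclusive = mean inhibition reaches that limit but some replicates miss it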;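 note: 0% = plate neutral control median and 100% = total signal loss; the record names both 10 and 1 µM as test concentration; the first replicate is given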
# Target sequence (P42568 whole entry, looked up): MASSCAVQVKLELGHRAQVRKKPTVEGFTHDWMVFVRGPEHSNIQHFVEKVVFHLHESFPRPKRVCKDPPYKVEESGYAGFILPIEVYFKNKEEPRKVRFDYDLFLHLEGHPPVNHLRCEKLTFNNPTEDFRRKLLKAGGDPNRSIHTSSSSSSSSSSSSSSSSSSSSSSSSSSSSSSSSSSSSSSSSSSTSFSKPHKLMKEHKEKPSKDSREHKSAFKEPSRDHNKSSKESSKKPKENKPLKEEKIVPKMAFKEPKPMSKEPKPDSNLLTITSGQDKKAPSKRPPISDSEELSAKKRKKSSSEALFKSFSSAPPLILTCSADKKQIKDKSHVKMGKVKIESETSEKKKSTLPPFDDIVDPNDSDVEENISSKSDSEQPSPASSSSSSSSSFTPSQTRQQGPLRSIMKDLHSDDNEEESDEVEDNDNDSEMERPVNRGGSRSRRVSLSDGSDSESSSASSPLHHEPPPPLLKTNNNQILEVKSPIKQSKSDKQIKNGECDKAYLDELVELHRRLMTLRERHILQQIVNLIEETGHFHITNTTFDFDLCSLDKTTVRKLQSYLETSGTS
# Vif A3G: inhibitors of Vif binding to APOBEC3G peptide, primary screen, biochemical, TR-FRET, GST-Vif 1-94, biotin-A3G peptide, dose response retest (AID 1117319); TR-FRET GST-Vif / biotin-A3G peptide binding; higher % means a stronger effect; test concentration not given here; strong numbers were not always called active; Virion infectivity factor (Human immunodeficiency virus type 1 group M subtype B (isolate …; one-dose inhibition, %; IC50 in µM for titrated hits; actives 0.57% (n = 260,000);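 active = above the screen mean plus three standard deviations and confirmed in dose response; inconclusive = results disagree or hit not tested in dose response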;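 note: Vif residues 1-94 fused to GST binding biotinylated APOBEC3G peptide 110-148; 0% = full assay without inhibitor and 100% = GST in place of GST-Vif; retest series ran down from 100 µM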
# Ecoli rRNA inh: reduced GFP signal of wild-type E. coli, primary screen, bacterial rRNA inhibitor project, GFP/RFP fluorescence, OD600, single point; actives 1.6% (n = 350,000); GFP signal change (wild-type ribosome), % (test concentration not listed); E. coli WT GFP vs humanized-ribosome RFP mutants, 24 h; stronger effect = lower value; DMSO median 0, no signal -100;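 active = significant combined selectivity score with lowered wild-type GFP, culture density cut under 30%, mutant RFP and density less affected; inactive = any of these conditions unmet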; note: one replicate is shown; some compounds called inactive have numbers as strong as hits
# Ecoli rRNA inh OD600: recorded beside Ecoli rRNA inh, whose call it bears; OD600 change, %; measured here: OD600 growth;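 optical density of the mix in the first replicate; 0 = DMSO median and -100 = no signal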
# Ecoli rRNA inh RFP: also measured in Ecoli rRNA inh; calls as there; RFP signal change, %; measured here: RFP humanized mutant strains;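 first replicate; 0 = DMSO median and -100 = no signal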
# * = called active by the depositor; ? = inconclusive; · = no result given.
# Values run as follows: Beta apoptosis	Calb FLC	T cruzi inh	Bfl-1 A1 inh	RanGTP-Impb inh	MLL AF4-AF9 inh	Vif A3G	Ecoli rRNA inh	Ecoli rRNA inh OD600	Ecoli rRNA inh RFP
- CSCC[C@H](NC(=O)c1ccc(Br)o1)c1nnc2ccccn12
  0	0	-4	-0.4	0.6	0.1	·	5	2	-0.1
- COCCCNc1cc(C)nc2ccccc12
  0	2	-7	-1.6	1.4	·	-3%	·	·	·
- NS(=O)(=O)c1ccc(NC(=O)COC(=O)CC2Sc3ccccc3NC2=O)cc1 (stereo unspecified)
  -7	·	·	0.0	·	0.4	69%	·	·	·
- CCOC(=O)Cn1c(=O)c2c(nc3n2CCS3)n(C)c1=O
  -1	-9	18	-0.2	-9.4	·	?	·	·	·
- C/C(=N\Nc1ccc(F)cc1)c1ccc(N2CCOCC2)c(F)c1
  -3	-20	-5	0.0	?	-3.3	6%	5	3	1.7
- Cc1cccc(CCNS(=O)(=O)c2ccc3c(c2)NC(=O)C(C)S3)c1 (stereo unspecified)
  -11	?	2	-1.7	6.8	?	-2%	-54	-76	-14
- CN(C(=O)COc1ncnc2sccc12)C1CCCCC1
  -2	·	·	-0.5	·	-1.1	·	5	12	-4.1
- COc1ccc(S(=O)(=O)NCCCCC(=O)O)cc1C(=O)O
  -2	-3	-5	-0.1	3.1	-4.1	-8%	8	2	0.8
- CCC(=O)Nc1cccc(C(=O)c2ccc(C)c(C)c2)c1
  1	1	-3	0.0	1.9	0.1	-2%	-19	-22	-1.6
- CCN(CC(=O)Nc1ccc(NC(C)=O)cc1)C(=O)CCCc1nc2ccccc2s1
  2	·	·	-0.6	·	-3.6	-9%	-6	4	2.1
- Cc1cccc(OC(C)C(=O)N2CCc3ccccc3C2)c1 (stereo unspecified)
  -6	11	-5	-1.0	0.5	-8.1	1%	-11	-16	2.3
- O=S1(=O)CCN2C(Cc3ccc(SC(F)F)cc3)=CSC2=N1
  -2	-5	1	-0.8	2.3	·	-1%	·	·	·
- CCN(N=O)[C@@H](Cc1ccccc1)CN(N=O)[C@@H](Cc1ccccc1)CN(C)N=O
  -1	-7	-2	-1.8	2.3	5.1	14%	-15	-22	-14
- S=C(NCc1ccc2[nH]c3c(c2c1)CCCC3)Nc1ccccc1Cl
  9	-2	10	·	?	13	31%	10	-19	-2.1
- Cc1cc(NC(=O)CCCn2ccc([N+](=O)[O-])n2)n(Cc2ccc(F)cc2)n1
  1	-1	4	0.0	-0.1	-0.1	0%	5	-4	2.4
- CN(CC(=O)NC1CCCCC1)S(=O)(=O)c1cccc2cccnc12
  ·	-2	6	0.7	?	5.9	-1%	1	5	-0.9
- O=C(c1ccc2nc(-c3ccccc3)c(-c3ccccc3)nc2c1)N1CCCCC1
  0	21	21	-0.5	2.1	-25	·	-24	-27	-1.9
- O=C(CCn1c(=O)oc2ccccc21)NCc1ccco1
  2	1	-12	-0.1	0.3	0.6	·	5	8	-4.7
- CCc1ccc(N2NC(=O)/C(=C/C=C/c3ccco3)C2=O)cc1
  -3	-39	-17	-0.9	-3.6	-3.6	·	·	·	·
- CCCCCCn1c(C)nc2c(c1=O)c1nc3ccccc3nc1n2/N=C/c1ccco1
  0	-3	-1	-0.4	-1.4	·	7%	·	·	·
- CN(CC(=O)Nc1cccc(F)c1)C(=O)c1ccc(OCC2CCCO2)cc1 (stereo unspecified)
  -4	-4	-8	0.6	?	-1.2	·	-6	-18	-4.1
- O=C(CC(Nc1ccccc1)c1ccccc1)C1CC1 (stereo unspecified)
  -7	-6	-13	0.3	0.1	·	-1%	-4	9	3.3
- COc1cc(C(C)=O)ccc1OCC(O)CN1CCN(c2ccc(C)c(C)c2)CC1 (stereo unspecified)
  -1	-10	10	0.0	2.4	5.1	·	-7	-7	-1.0
- Cc1ccc(NC(=O)Cn2cnc3sc(C(=O)NCCN(C)C)c(C)c3c2=O)cc1Cl
  ·	7	19	·	2.5	·	-8%	·	·	·
- Cc1ccccc1NC(=O)C1(C)Cc2ccccc2C(=O)O1 (stereo unspecified)
  -5	5	2	-0.2	-1.6	-1.5	-5%	·	·	·
- C/C(=N\N(Cc1ccccc1)c1ccccc1)c1cccnc1
  -3	-21	62*	1.8	11	10	-3%	-54	-77	-22
- O=C(Cc1ccc(Cl)cc1)Nc1cc(Cl)ccn1
  -2	5	5	-1.5	-0.2	-0.3	·	11	5	3.4
- Cc1nc(-c2ccc(S(=O)(=O)Oc3ccc(Cl)cc3Cl)s2)cs1
  ·	-4	-11	-0.2	1.2	-3.5	11%	-2	-3	17
- CC(C)NC(=O)N1CCN(c2ccncc2S(=O)(=O)N2CCOCC2)CC1
  -11	0	-1	0.3	-1.8	·	5%	·	·	·
- O=C(NCc1cccnc1)c1cccc(F)c1
  -6	-8	-13	0.6	1.9	·	-3%	·	·	·
- CCC(C)C(NC(=O)[C@@H](NC(=O)c1ccccc1F)C(C)C)C(=O)OC (stereo partly specified)
  2	-4	4	-0.1	?	·	5.8µM*	·	·	·
- N#Cc1c(-c2ccco2)cc(-c2ccccn2)nc1N
  3	-5	-18	-4.0	2.9	·	?	·	·	·
- CCCCOc1ccc(C(=O)NNC(=O)C2C3C=CC(C3)C2C(=O)O)cc1 (stereo unspecified)
  -1	17	-10	-0.1	-0.3	-0.9	·	-14	-12	-3.3
- Cc1ccc(-c2csc3nnc(SCc4csc(C)n4)n23)cc1
  3	-13	2	-0.3	-0.1	·	1%	·	·	·
- CC(=O)Nc1nc(C)nc(-c2ccccc2OC(C)=O)n1
  5	23	-3	-0.2	4.9	4.7	8%	5	4	-4.5
- CN(C(=O)COC(=O)/C=C/c1ccc(F)cc1)c1c(N)n(Cc2ccccc2)c(=O)[nH]c1=O
  -7	0	-5	-0.3	3.4	-6.6	-4%	1	16	-1.3
- Cc1ccc2c(c1)C=CC(C)(C)S2=O (stereo unspecified)
  3	-5	-12	0.0	2.0	0.4	·	12	9	-0.9
- CCO[C@H]1OC(C(=O)NC2CC2)=C[C@@H](c2csc3ccccc23)[C@@H]1CCCO
  -9	1	-1	0.5	-3.4	4.0	·	·	·	·
- c1ccc(CSc2nnc3ccc(-c4ccncc4)nn23)nc1
  0	-2	-10	0.4	3.9	0.5	-12%	6	-4	-6.2
- C=CCSc1nnc(NC(=O)CCN2C(=O)C3CC=CCC3C2=O)s1 (stereo unspecified)
  -6	·	·	0.6	·	-3.6	3%	5	9	-1.7
- CCOC(=O)C[n+]1c(C)sc2ccc(OC)cc21
  -10	2	29	-0.6	0.0	·	?	·	·	·
- O=C1CC(c2cccs2)CC2=C1C(c1ccccc1)n1ncnc1N2 (stereo unspecified)
  -6	14	1	0.3	1.1	·	-10%	·	·	·
- O=C(O)c1ccc(N=N/C(=N\Nc2ccc(C(=O)O)cc2)c2ccccc2)cc1
  19	1	-3	-0.1	-4.3	2.4	·	15	22	-3.1
- COc1ccc(CC(=O)OCc2cc3ccc(C)cc3[nH]c2=O)cc1
  3	6	-4	-1.3	0.2	·	69%	·	·	·
- O=C(CSc1ncn[nH]1)Nc1cc(S(=O)(=O)N2CCCC2)ccc1Cl
  3	-2	0	0.2	?	-0.3	8%	2	-2	2.2
- Cc1ccc(OCC(=O)N(C)CC(=O)Nc2ccc(N3CCOCC3)cc2)cc1
  1	·	0	0.5	-2.7	0.5	-2%	6	5	5.8
- COc1ccc(-c2cc(C(=O)NCc3ccc(Cl)cc3)no2)cc1OC
  -12	5	-9	0.1	-0.2	·	3%	·	·	·
- O=C(/C=C/c1ccc(-c2ccc(F)cc2)o1)N1CCCC1
  -3	14	4	2.0	2.5	8.5	-3%	-42	-38	-5.7
- COc1ccc(Cl)cc1NC(=S)Nc1cccc(C)c1
  1	-2	4	0.5	?	0.0	-4%	1	-5	-0.5
- O=C(Nc1nc2c(Cl)cccc2s1)C1CC1
  4	7	-3	-1.2	5.6	-21	·	-1	-2	-2.1
- Cc1noc(/C=C/Nc2ccc(F)cc2F)c1[N+](=O)[O-]
  10	12	4	1.0	2.0	3.0	-1%	10	8	1.1
- Cc1ccc(NC(=O)CN(C)C(=O)c2ccccc2OCc2c(C)noc2C)cc1
  -3	0	7	0.6	-1.0	-0.8	-8%	7	20	-1.0
- Cc1ccc(CN2CCN(CC3CC4C=CC3C4)CC2)cc1 (stereo unspecified)
  -1	-18	40	-0.3	-0.4	·	15%	·	·	·
- COc1cccc(/C=N/NC(=O)c2ccc(N(C)S(=O)(=O)c3ccccc3)cc2)c1OC
  0	?	-14	0.1	-0.5	2.1	4%	-12	-5	2.7
- Cc1cc([N+](=O)[O-])ccc1NC(=O)C(C)[n+]1ccccc1 (stereo unspecified)
  -24	-16	-13	0.5	-0.2	·	18%	·	·	·
- CC(C)N1CCC(NC(=O)NC2CCCCC2)CC1
  -5	-22	-10	-0.8	?	-5.9	0%	22	14	0.0
- COc1ccc(CCN(C)C2CCCN(C(=O)Cn3cnnn3)C2)cc1OC (stereo unspecified)
  3	-6	38	-1.2	2.0	-2.1	-1%	4	11	-1.0
- CCOc1ccc(NC(=O)C2CCCN(c3c(CC)c(C)nc4ncnn34)C2)cc1 (stereo unspecified)
  ·	19	2	-1.5	1.8	-1.8	·	-3	5	2.0
- CCOc1ccc(NC(=O)c2cc3cc4ccc(OC)cc4nc3o2)cc1
  2	3	19	0.5	5.9	·	3%	·	·	·
- CCOCCCn1c(=N)c(C(N)=S)cc2c(=O)n3cccc(C)c3nc21
  9	-13	22	-1.1	173*	·	-1%	·	·	·
- COC(=O)c1ccccc1S(=O)(=O)N1CCC(C(=O)NC2=NCCS2)CC1
  -3	·	·	1.4	·	-5.5	1%	1	4	0.6
- C=CCSc1nnc(-c2cccnc2)o1
  -1	-4	2	0.5	-1.3	6.2	4%	3	11	1.2
- CC1CCN(C(=O)COC(=O)c2nn(C)c(=O)c3ccccc23)CC1
  -3	-4	-2	-0.5	-1.6	-1.8	·	9	11	0.2

# These rows are one share of the data; count on the stated rates, not on these rows.
